High-throughput results as filed in PubChem.
eIF4H inh: inhibitors of RNA binding by human eIF4H; 290,000 tested, 0.94% active; inhibition, % at 35 µM; eIF4H fluorescence polarization binding assay; AID 2012; Q15056;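 active = 50% or more with normal probe brightness, or confirmed in later tests; about a fifth of its hits are not listed in these tables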;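 also: calls also rest on retests at 20 µM and on dose response follow-up; 0% = protein and probe with vehicle and 100% = probe without protein; strong numbers were not always called active; many hits fall short of the cut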
MT1-MMP act inh: MT1-MMP (human) activation inhibition. 360,000 tested, 0.061% active. HT1080 RFP-PRO-GFP cells, GFP/RFP ratio fluorescence, overnight; percent of plate control window, DMSO zero. GFP/RFP ratio change, % at 20 µM. P50281;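 active = GFP/RFP ratio change of at least 30% with cell ATP level not reduced by more than half and red fluorescence within 50% of control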; also: strong numbers were not always called active
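system = RFP-PRO-GFP reporter HT1080 cells | dosing = 20 µM single dose, 1% DMSO | timing = overnight cell settling, then overnight compound exposure, 37 °C, 5% CO2 | read-out basis = GFP/RFP fluorescence ratio | controls = DMSO and RFP-L50D-GFP cell wells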
HIV Env fusion: blocks HIV Env-driven cell-cell fusion | HeLa-JRFL Env/CEM21 cell fusion, luciferase | inhibition, % at 12.3 µM | 360,000 tested, 1.1% active | AID 651610;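 active = mean replicate inhibition score of at least 50 and every replicate individually at or above 50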;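 also: 0% = plate neutral controls and 100% = maraviroc near 300 nM; one replicate is shown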
UUG fidelity: modulators of start codon recognition fidelity in yeast; 350,000 tested, 0.13% active; activity score, % at 18.7 µM; S. cerevisiae UUG-firefly luciferase reporter, luminescence/redox ratio;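 active = replicate mean at a twofold rise or more, about +100% in these data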;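 also: firefly luciferase made from a UUG start codon reports start codon fidelity; reporter light over untreated wells divided by growth signal over untreated wells; some hits fall short of that in this replicate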
CSC inhib: cancer stem cell inhibition. cancer stem cell-like cells viability, luminescence. inhibition, % at 7.5 µM. 300,000 tested, 1.1% active. AID 2717;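 active = mean at 75% or more and at least half the replicates too; tested in HMLE shEcad cells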;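 also: 0% = median of negative and 100% = median of positive control wells; the first replicate is given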
Rce1 inhib: blocks yeast Ras-converting enzyme; 290,000 tested, 0.27% active; yeast membranes, quenched prenylated peptide cleavage fluorescence; AID 2563; calls only;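 active = fall in fluorescence gain of 50% or more versus controls, with final raw signal at or below 3038400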;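 also: plate controls were neutral control wells for no effect and wells lacking membranes for full effect; tested at 10 µM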
Target sequence (Q03530 whole entry, looked up): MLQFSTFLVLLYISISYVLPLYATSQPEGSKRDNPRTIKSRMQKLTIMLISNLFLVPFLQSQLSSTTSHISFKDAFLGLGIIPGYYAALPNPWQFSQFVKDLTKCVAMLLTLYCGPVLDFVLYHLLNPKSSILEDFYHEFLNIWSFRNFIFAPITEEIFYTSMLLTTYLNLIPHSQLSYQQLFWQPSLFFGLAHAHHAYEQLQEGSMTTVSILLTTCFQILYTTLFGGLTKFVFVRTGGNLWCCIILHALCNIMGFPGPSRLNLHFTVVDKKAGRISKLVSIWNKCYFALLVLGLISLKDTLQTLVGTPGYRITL
PABP polyA inh: blocks human PABP binding to poly(A) RNA. P11940. fluorescence polarization. inhibition, % at 35 µM. 290,000 tested, 1% active;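 active = 50% or more with normal probe brightness, or confirmed in later tests; about a fifth of its hits are not listed in these tables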;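 also: calls also rest on retests at 20 µM and on dose response follow-up; controls were probe without protein and protein plus probe with vehicle; some compounds called inactive have numbers as strong as hits; many hits fall short of the cut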
Target sequence (P11940 whole entry, looked up): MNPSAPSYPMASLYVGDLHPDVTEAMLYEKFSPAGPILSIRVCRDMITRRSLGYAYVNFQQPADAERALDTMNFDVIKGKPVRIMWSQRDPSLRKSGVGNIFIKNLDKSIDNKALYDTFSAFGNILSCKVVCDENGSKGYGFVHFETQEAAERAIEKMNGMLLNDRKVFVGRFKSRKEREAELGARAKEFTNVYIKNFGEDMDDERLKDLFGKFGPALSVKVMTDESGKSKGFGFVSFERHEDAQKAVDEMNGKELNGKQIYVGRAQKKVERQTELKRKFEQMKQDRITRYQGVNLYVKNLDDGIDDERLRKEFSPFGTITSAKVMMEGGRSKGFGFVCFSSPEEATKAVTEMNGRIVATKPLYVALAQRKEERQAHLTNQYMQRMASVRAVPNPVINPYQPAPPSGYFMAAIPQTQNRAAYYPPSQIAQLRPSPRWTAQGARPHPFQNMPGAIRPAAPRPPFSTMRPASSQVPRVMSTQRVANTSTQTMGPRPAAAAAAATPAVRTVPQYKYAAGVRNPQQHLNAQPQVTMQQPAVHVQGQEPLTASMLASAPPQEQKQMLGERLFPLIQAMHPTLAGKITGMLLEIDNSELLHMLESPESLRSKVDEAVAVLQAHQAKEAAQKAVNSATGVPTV
eIF4H inh retest: also measured in eIF4H inh; calls as there; inhibition, %; compound at 20 µM; confirmation average;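 mean of two retest wells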
PABP polyA inh retest: further read-out of PABP polyA inh, marked with its call; inhibition, %; compound at 20 µM; confirmation repeats;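 mean of two retest wells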
MT1-MMP act inh RFP: recorded beside MT1-MMP act inh, whose call it bears; RFP signal change, %; measured here: RFP expression control read;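 0 = vehicle wells; hits needed this value within 50% of zero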
Active calls of the source: *; i = inactive; . = no result given.

SMILES	eIF4H inh	MT1-MMP act inh	MT1-MMP act inh RFP	HIV Env fusion	UUG fidelity	CSC inhib	Rce1 inhib	PABP polyA inh	others
CC(=O)c1cccc(-c2cnc3c(NC=O)cc(-c4cccc(C(=O)N(C)C)c4)cn23)c1	.	12	2	24	-9	.	.	.
CCOC(=O)Cc1csc(NC(=O)COc2ccccc2OCC)n1	5	5	4	-20	-12	-13	i	-4
CCN(CC)C(=S)SC1CCCCN(C(=O)c2ccc(F)cc2)C1=O (stereo not drawn)	-5	2	0	13	.	5	i	3
COc1cccc2c1OC1(C)CC2NC(=O)N1 (stereo not drawn)	-8	.	.	0	-2	-10	i	-10
O=C(Cn1cnc2nc3n(c2c1=O)CCC3)NCc1ccccc1	2	0	3	-5	.	-13	i	2
O=C(CN1C(=O)c2ccccc2C1=O)Nc1cccc(O)c1	-3	2	3	-9	57	2	i	5
NCCN1C(=O)S/C(=C\c2ccc3c(c2)OCO3)C1=O	-18	1	0	31	.	-9	i	-4
COc1cccc(Cn2cnc3c(NS(=O)(=O)c4cc(Cl)ccc4Cl)c(C)c(C)cc32)c1	-3	-1	-8	-321	-8	19	i	-7
CC1CN(c2nc3ccccn3c(=O)c2C=O)CC(C)O1 (stereo not drawn)	-4	0	0	12	.	-2	i	14
Cc1ccc(NC(=O)CS(=O)Cc2nc(-c3ccc(C)cc3)oc2C)cc1 (stereo not drawn)	4	6	-1	5	-3	5	i	3
CCc1ccc(/C=C(/C#N)C(N)=S)s1	-2	0	-1	5	-5	-8	.	4
CCOc1ccc2oc(C(=O)N3CCN(c4ccccn4)CC3)c(C)c2c1	0	0	1	3	0	-14	i	-6
CCc1cc(C(=O)N2CCCC(C(=O)c3ccc(C(F)(F)F)cc3)C2)n(C)n1 (stereo not drawn)	-14	2	-11	4	4	.	i	-2
Nc1ccc(-n2nnnc2-c2ccco2)cc1	-7	-2	3	-15	-6	-17	i	-5
C=CCNC(=O)c1ccccc1NS(=O)(=O)c1ccc(SC)cc1	4	0	0	8	-3	3	i	0
Cc1cc(C)c(S(=O)(=O)c2cccc(Br)c2C)c(Cl)n1	-4	0	-6	14	-12	8	i	-5
Cc1cc(NC(=O)COC(=O)CSCc2ccc(Cl)c(Cl)c2)no1	0	12	2	.	-8	1	i	-5
CC(c1ccc(Br)cc1)N1CC23C=CC(O2)C(C(=O)O)C3C1=O (stereo not drawn)	8	0	6	-12	-3	4	i	8
CC(C)COCC(CN(Cc1ccccc1)c1ccccc1)N1CCCC1 (stereo not drawn)	-3	-4	-2	25	-5	10	i	-4
Cc1cc(C)c2c(N)c(C(=O)N/N=C/c3ccccc3)sc2n1	0	7	-5	-80	.	-2	i	10
COc1cc(/C=C/[N+](=O)[O-])ccc1OC(=O)/C=C/c1ccc(F)cc1	6	3	8	-34	-3	.	i	12
Nc1c(-c2ccc(Cl)cc2)cnc2ncnn12	1	5	-2	i	-9	-10	i	5
O=C1C2CCCN2C(=O)N1CCN1CCN(CCO)CC1 (stereo not drawn)	-1	2	2	6	-11	-16	i	-1
CCCCCCCCC(=O)NC(NC(=S)N1CCOCC1)C(Cl)(Cl)Cl (stereo not drawn)	0	-1	-4	.	-13	31	i	2
Cc1noc(C)c1C(=O)OCC(=O)Nc1ccc(S(N)(=O)=O)cc1	.	0	-1	-5	-9	-13	.	.

Pulled by structure from above, five records:
SMILES	eIF4H inh	MT1-MMP act inh	MT1-MMP act inh RFP	HIV Env fusion	UUG fidelity	CSC inhib	Rce1 inhib	PABP polyA inh	others
Cc1ccc(NC(=O)CS(=O)Cc2nc(-c3ccc(C)cc3)oc2C)cc1 (stereo not drawn)	4	6	-1	5	-3	5	i	3
COc1cccc2c1OC1(C)CC2NC(=O)N1 (stereo not drawn)	-8	.	.	0	-2	-10	i	-10
CC(=O)c1cccc(-c2cnc3c(NC=O)cc(-c4cccc(C(=O)N(C)C)c4)cn23)c1	.	12	2	24	-9	.	.	.
C=CCNC(=O)c1ccccc1NS(=O)(=O)c1ccc(SC)cc1	4	0	0	8	-3	3	i	0
Cc1cc(C)c2c(N)c(C(=O)N/N=C/c3ccccc3)sc2n1	0	7	-5	-80	.	-2	i	10

Additional records
SMILES	eIF4H inh	MT1-MMP act inh	MT1-MMP act inh RFP	HIV Env fusion	UUG fidelity	CSC inhib	Rce1 inhib	PABP polyA inh	others
Cc1cc2cccc(C)c2nc1SCC(=O)NC1CCCCC1	-14	-1	2	-9	.	.	i	-3
CN1CCN(S(=O)(=O)c2ccc(N(C)Cc3cccs3)nc2)CC1	-2	1	3	-58	-7	10	i	-3
CCCCOC(=O)c1ccc(NC(=O)C(=O)NCc2cccnc2)cc1	-2	-5	-2	-1	3	16	i	6
CC(=O)Nc1ccc(Oc2nc(C(F)(F)F)nc3ccccc23)cc1	-12	1	1	10	-14	8	i	0
CN1CCC(OC(=O)COc2ccc(Br)cc2)CC1	-4	2	-2	3	.	15	i	-4
C=CC(=O)NCc1ccc(-c2csnn2)cc1	-3	1	7	-18	-17	-1	i	-5
COC(c1ccccc1)c1nnc(CCC(=O)NCCCc2ccccc2)o1 (stereo not drawn)	-12	-1	-1	11	-4	9	i	-17
O=C(Nc1ccc(Br)cc1)C1Cc2ccccc2O/C1=N\O (stereo not drawn)	8	1	1	-73	-6	12	i	10
Cc1cc(F)ccc1NCc1cc2c(cc1[N+](=O)[O-])OCO2	-1	9	5	-90	2	15	i	-4
Brc1cccc(-c2nnc(-c3ccccc3)o2)c1	-2	23	-7	.	-16	-18	.	2
Cc1nc(N2CCOCC2)c(C#N)c2c1COC(C)(C)C2	-4	-2	-4	17	.	-8	i	7
CCOc1ccc(NCC(=O)Nc2ccc(Cl)cc2C)cc1	9	1	-3	-225	-13	3	i	3
Cc1ccc(-c2cc(C(=O)NCc3cnn(C)c3)c3cc(Br)ccc3n2)cc1	9	-3	4	.	-19	-3	i	-4
CNC(=S)N(Cc1ccc(OC)cc1)C1CC(=O)N(c2ccc(C(=O)OC)cc2)C1=O (stereo not drawn)	1	.	.	-7	.	18	i	2
CCn1c(C)nc2cc(S(=O)(=O)N3CCCCC3)ccc21	-4	6	-1	-1	.	1	i	-6
COc1ccc(Br)c(Cn2c(C)c(C(=O)N(C)Cc3ccc(F)cc3)sc2=O)c1	.	4	-15	-5	-14	.	.	.
Cc1c(NC(=O)CSCc2ccco2)c(=O)n(-c2ccccc2)n1C	-10	-1	-3	-3	-13	-1	.	6
O=C(c1ccc([N+](=O)[O-])s1)N1CCN(c2ccccc2)CC1	-2	6	-6	40	.	4	i	4
CCC1=NN(C(=O)COc2ccccc2C)C(O)(c2ccncc2)C1 (stereo not drawn)	-14	-5	3	-15	.	-11	i	-5
Cc1[nH]n(-c2ccccc2)c(=O)c1C(c1ccccc1C(=O)O)c1c(C)[nH]n(-c2ccccc2)c1=O	-6	3	7	-10	.	-3	i	-11
Cc1cc(C)c(NC(=O)CN(C2CCCCC2)C2CCCCC2)c(C)c1	-5	-19	-8	.	-6	14	i	-14
COC(=O)c1ccc(C)c(-n2c(C)cc(C=O)c2C)c1	46	-4	-2	8	.	0	i	1
C=CCN(CC=C)Cc1cc(=O)oc2cc(C)ccc12	.	4	5	-21	-10	.	.	.
Cc1cc(S(=O)(=O)N2CCCCC2CCNC(=O)C(=O)NCCN2CCOCC2)ccc1F (stereo not drawn)	.	-2	4	-13	-32	.	.	.
CC(=O)Nc1nc2ccccc2n1Cc1ccc(C)cc1	8	11	-1	-1	.	.	i	3

Molecules shown so far with a nitro group on carbon, in the order listed:
SMILES	eIF4H inh	MT1-MMP act inh	MT1-MMP act inh RFP	HIV Env fusion	UUG fidelity	CSC inhib	Rce1 inhib	PABP polyA inh	others
COc1cc(/C=C/[N+](=O)[O-])ccc1OC(=O)/C=C/c1ccc(F)cc1	6	3	8	-34	-3	.	i	12
Cc1cc(F)ccc1NCc1cc2c(cc1[N+](=O)[O-])OCO2	-1	9	5	-90	2	15	i	-4
O=C(c1ccc([N+](=O)[O-])s1)N1CCN(c2ccccc2)CC1	-2	6	-6	40	.	4	i	4

New compounds follow.
SMILES	eIF4H inh	MT1-MMP act inh	MT1-MMP act inh RFP	HIV Env fusion	UUG fidelity	CSC inhib	Rce1 inhib	PABP polyA inh	others
Cc1cc(C(=O)OCC(=O)Nc2ccccc2C)c(C)o1	.	-2	-2	4	-17	.	.	.
CN(C(=O)CSc1ncccn1)C1CCS(=O)(=O)C1 (stereo not drawn)	0	4	6	4	-26	16	i	4
CC(=O)NC1CC2CCCC(C1)N2CC(=O)N1CCCc2ccccc21 (stereo not drawn)	3	-3	2	-16	-9	-10	i	-2
C[C@@H]1CN([C@@H](C)CO)C(=O)c2cccc(NS(C)(=O)=O)c2O[C@H]1CN(C)Cc1ccc(Oc2ccccc2)cc1	.	1	-2	10	-3	.	.	.
Cc1ccc(S(=O)(=O)N2CCCC2)cc1S(=O)(=O)N1CCCC1	-9	2	5	-41	-16	-14	i	-7
CN1CCC(Oc2ccccc2Sc2ccccc2)CC1	-11	-13	-5	-72	.	55	i	1
O=C(CCCc1ccccn1)c1ccc(-c2ccccc2)cc1	.	0	0	39	-44	.	.	.
COC(=O)Nc1ccc(SCC(=O)c2ccc(Cl)cc2)cc1	-9	1	-2	-10	-11	6	i	-3
C=CCN1C(=O)/C(=c2\sc3nc(=O)c(Cc4ccccc4)nn3c2=O)c2ccccc21	2	1	2	14	3	19	i	2
CC(OC(=O)c1ccc(Cl)nc1)C(=O)Nc1ccc(S(=O)(=O)N2CCCC2)cc1 (stereo not drawn)	.	2	-2	-16	-8	-6	i	.
COc1cc(NC(=O)CCCn2c(=S)[nH]c3ccccc3c2=O)cc(OC)c1OC	-2	5	-3	-25	-9	14	i	8
CCOc1ccccc1NC(=O)Cn1c(=O)c2ccccc2n(CC)c1=O	7	-1	1	16	-23	6	i	-6
O=C(Nc1ccc(C(=O)O)cc1)/C(=C\c1ccc2c(c1)OCO2)NC(=O)c1ccccc1Cl	.	-1	4	-3	-18	.	.	.
CCOc1ccc2nc(SCC(=O)N(CC(C)C)c3c(N)n(Cc4ccccc4)c(=O)[nH]c3=O)[nH]c2c1	.	-3	-4	-4	-6	-10	i	.
CCCN(CC(=O)Nc1ccccc1C)C(=O)C1CC(=O)N(c2ccc(CC)cc2)C1 (stereo not drawn)	.	0	2	0	3	0	.	.
C/C(=N\Nc1ccc(C(=O)O)cc1)c1ccc(Br)cc1	51*	-1	-1	-3	-11	-6	i	36	eIF4H inh retest=73*;PABP polyA inh retest=30
O=C(NCc1ccc(F)cc1)c1cnc(Cl)c(Cl)c1	-6	0	2	-1	-23	-51	i	4
Cc1ccc2nc(SCC(=O)c3ccc(O)cc3O)[nH]c2c1	17	-8	-4	-41	10	4	i	11
NC(=O)c1ccsc1NC(=O)c1ccco1	-5	-1	7	-21	-14	-1	i	9
O=C(/C=C/c1ccc(Cl)cc1)NCCSc1ccccc1	8	0	4	-140	-4	1	i	4

The list is partial; rates above refer to the full screens.
